High-throughput results from PubChem BioAssay.
CBX7 inh = CBX7 inhibition, primary AlphaScreen; O95931; AlphaScreen His6-CBX7 / biotin-H3K27me3 peptide binding; active compounds read low; normalised signal (fraction of DMSO) (no concentration beside the values); hit rate 1.1% among 66,000; in the data active = normalised signal below about 0.5;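 also: 100 nL library stock added to about 20 µL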
Target sequence (O95931 whole entry, looked up): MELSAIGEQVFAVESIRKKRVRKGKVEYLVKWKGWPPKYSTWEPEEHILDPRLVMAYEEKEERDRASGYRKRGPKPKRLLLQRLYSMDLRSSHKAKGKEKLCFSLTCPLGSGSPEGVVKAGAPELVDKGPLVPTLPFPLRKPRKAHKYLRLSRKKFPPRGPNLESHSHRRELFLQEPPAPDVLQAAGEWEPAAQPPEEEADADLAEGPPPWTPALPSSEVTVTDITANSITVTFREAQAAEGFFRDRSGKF
CBX7 inh z-score = second read-out of CBX7 inh, no call of its own (marks repeat the call); z-score; measured here: z-score of CBX7 signal; some inactives read as strong as hits; reference of the scale not given here;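 same signal on another scale; lower means less binding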
Active calls of the source: *. A portion of the library. The share of hits here may be higher or lower than overall.

SMILES	CBX7 inh	CBX7 inh z-score
CCn1c(C(=O)NC(C)CCc2ccccc2)cc2sc(Cl)cc21 (stereo not drawn)	1	1.5
COc1cccc(CN2C(=O)c3ccccc3Sc3ccc(C(=O)NCCCN4CCC(C)CC4)cc32)c1	0.85	-2.3
CCOCCCNC(=O)C1CCN(c2nc3ccc(OC)cc3s2)CC1	1	0.83
COc1ccc(-n2nc(C(=O)N3CCC(C)CC3)c3ccccc3c2=O)c(OC)c1	0.98	-0.54
COc1cccc(-n2c(Cc3cc(=O)[nH]c(=O)[nH]3)nnc2SCc2c(F)cccc2Cl)c1	1.1	0.26
CCCCOc1ccc(C2(C)NC(=O)NC2=O)cc1 (stereo not drawn)	0.94	-1.2
COc1cccc(-c2cc(C(=O)Nc3cc(Cl)ccc3OC)no2)c1	0.97	-0.65
COc1ccc(-n2c(/C=C/c3c(C)[nH]c4ccccc34)nc3ccccc3c2=O)cc1	1.1	3
CCN(Cc1ccccc1)S(=O)(=O)c1ccc2c(c1)CCN2C(C)=O	1.4	1.7
Cc1cc(N2C(=O)c3ccc(C(=O)N4CCC(C)CC4)cc3C2=O)no1	1	0.76
CC(C)(C)C1CCc2onc(C(=O)NCCc3ccccc3)c2C1 (stereo not drawn)	0.94	-0.73
O=C(NCc1ccccc1)c1ccc(NC2=NC3CS(=O)(=O)CC3S2)cc1 (stereo not drawn)	1	-0.019
O=c1[nH]c2ccc(S(=O)(=O)Nc3ccc(Br)cc3)cc2[nH]c1=O	1.1	2.9
CCCCNc1ncnc2c1sc1nc3c(cc12)COC(C)(C)C3	1	-0.046
Cc1ccc(Cl)cc1NC(=O)c1oc2ccc(S(=O)(=O)N3CCCCC3)cc2c1C	1	0.62
COc1ccc(Cl)cc1NC(=O)CSc1nccn1-c1ccc(F)cc1	0.4*	-2.1*
CCOc1ccc(C(=O)N2CC(=O)Nc3ccc(C)cc3C2c2ccccc2)cc1OCC (stereo not drawn)	1.1	0.43
Cc1ccc2nc(-c3ccccn3)c(Nc3ccc(C(C)C)cc3)n2c1	0.62	-8.3
O=C(Nc1c(C(=O)Nc2cccc(F)c2)oc2ccccc12)c1ccccc1F	1	0.011
COc1ccc(-c2n[nH]c3c2C(=O)CC(C)(C)C3)cc1	1	0.92
Cc1cccc(C(=O)N2CC(=O)Nc3ccc(Br)cc3C2c2ccc(F)cc2)c1 (stereo not drawn)	1.1	0.32
O=S(=O)(c1cnc[nH]1)N1CCN(c2ccccc2F)CC1	1	0.058
O=C(NCc1ccccc1Cl)C1CCCN(S(=O)(=O)c2cccnc2)C1 (stereo not drawn)	1.1	0.065
Cc1ccc(-n2c(Cc3cccn3C)nnc2SCC(=O)Nc2ccc3c(c2)OCCO3)cc1	0.93	-1.6
COc1cc2c(C(=O)NCC3CCCO3)cn(CC(C)C)c(=O)c2cc1OC (stereo not drawn)	0.99	-0.3

15 successive records out of the list so far:
SMILES	CBX7 inh	CBX7 inh z-score
CC(C)(C)C1CCc2onc(C(=O)NCCc3ccccc3)c2C1 (stereo not drawn)	0.94	-0.73
O=C(NCc1ccccc1)c1ccc(NC2=NC3CS(=O)(=O)CC3S2)cc1 (stereo not drawn)	1	-0.019
O=c1[nH]c2ccc(S(=O)(=O)Nc3ccc(Br)cc3)cc2[nH]c1=O	1.1	2.9
CCCCNc1ncnc2c1sc1nc3c(cc12)COC(C)(C)C3	1	-0.046
Cc1ccc(Cl)cc1NC(=O)c1oc2ccc(S(=O)(=O)N3CCCCC3)cc2c1C	1	0.62
COc1ccc(Cl)cc1NC(=O)CSc1nccn1-c1ccc(F)cc1	0.4*	-2.1*
CCOc1ccc(C(=O)N2CC(=O)Nc3ccc(C)cc3C2c2ccccc2)cc1OCC (stereo not drawn)	1.1	0.43
Cc1ccc2nc(-c3ccccn3)c(Nc3ccc(C(C)C)cc3)n2c1	0.62	-8.3
O=C(Nc1c(C(=O)Nc2cccc(F)c2)oc2ccccc12)c1ccccc1F	1	0.011
COc1ccc(-c2n[nH]c3c2C(=O)CC(C)(C)C3)cc1	1	0.92
Cc1cccc(C(=O)N2CC(=O)Nc3ccc(Br)cc3C2c2ccc(F)cc2)c1 (stereo not drawn)	1.1	0.32
O=S(=O)(c1cnc[nH]1)N1CCN(c2ccccc2F)CC1	1	0.058
O=C(NCc1ccccc1Cl)C1CCCN(S(=O)(=O)c2cccnc2)C1 (stereo not drawn)	1.1	0.065
Cc1ccc(-n2c(Cc3cccn3C)nnc2SCC(=O)Nc2ccc3c(c2)OCCO3)cc1	0.93	-1.6
COc1cc2c(C(=O)NCC3CCCO3)cn(CC(C)C)c(=O)c2cc1OC (stereo not drawn)	0.99	-0.3

Other compounds follow:
SMILES	CBX7 inh	CBX7 inh z-score
O=C(Cn1nc(-c2ccccc2)c2cc(Cl)ccc21)NC1CCCc2ccccc21 (stereo not drawn)	1.1	1.3
Cc1ccc(N(CC(=O)Nc2ccc(F)c(Cl)c2)S(=O)(=O)c2c(C)nn(C)c2C)cc1	1.1	0.84
Cc1nc2c(C(=O)N3CCOCC3)c[nH]n2c(=O)c1Cc1ccc(F)cc1Cl	1.1	1.2
CN(C)c1ccc(C2Nc3ccccc3NC3=C2C(=O)CCC3)cc1 (stereo not drawn)	1	1.2
COc1cc2c(cc1OC)C1C(C(=O)NCCCN3CCOCC3)c3ccccc3C(=O)N1CC2 (stereo not drawn)	1	0.022
COc1cc2c(C(=O)Nc3cccc(C(F)(F)F)c3)cn(C)c(=O)c2cc1OC	0.99	-0.2
COc1ccccc1CNc1nc2ccccc2n1C(C)C	1	0.8
CCn1c(C(=O)NC2CCCc3ccccc32)cc2sc(Cl)cc21 (stereo not drawn)	1.1	2.2
Cc1ccc(OCC(=O)Nc2cccc(-c3nc4cc(C)cc(C)c4o3)c2C)c(C)c1	1	0.16
COc1ccc(NC(=O)C(CC(C)C)NS(=O)(=O)c2ccc3c(c2)CCN3C(C)=O)cc1 (stereo not drawn)	0.98	-0.64
COc1ccc(/C=C/c2cc(C(F)(F)F)[nH]c(=O)n2)c(OC)c1	1	0.67
CC1CCN(CCCNC(=O)c2cc(=O)[nH]c3ccc(S(=O)(=O)N4CCCCC4C)cc23)CC1 (stereo not drawn)	1	-0.17
CCOc1ccc(NC(=O)CC2C(=O)N(c3ccc(F)cc3)C(=O)N2Cc2ccc(OC)cc2)cc1 (stereo not drawn)	0.89	-0.46
O=C1CN(C(=O)CCC2CCCCC2)C(c2ccc(F)cc2)c2cc(Cl)ccc2N1 (stereo not drawn)	1.1	1.3
CCCCC(=O)Nc1c(C(=O)c2ccc(OC)cc2)oc2ccccc12	1.5	1.7
Fc1cnc(Nc2ccc(Cl)cc2)nc1Nc1ccc(Cl)cc1	1.1	0.52
CNc1nnc(SCc2ccc(Cl)cc2Cl)n1C	1.1	1.8
Cc1nc(NCCC2=CCCCC2)c2c(C)c(C)sc2n1	0.81	-0.25
COc1ccc(NC(=O)c2ccccc2NC(=O)c2cccc(S(=O)(=O)N3CCCCC3)c2)cc1	0.86	-1.6
COCCN1Cc2cccc(C(=O)Nc3ccc(-c4nc5ccccc5[nH]4)cc3)c2C1=O	1	0.041
CCCCNC(=O)c1nc(-c2ccc(C)cc2)oc1C	1	0.71
CN(C)CCNC(=O)c1cc(=O)[nH]c2ccc(S(=O)(=O)N3CCCCCC3)cc12	1.1	1.3
CCOc1ccccc1NC(=O)Cn1cnc2c(nnn2Cc2ccc(C)cc2)c1=O	0.87	-2.1
Cc1cc(N2CCN(C)CC2)nc2ccc(NC(=O)COc3ccc(Cl)cc3Cl)cc12	1.1	2.1
COCCN1Cc2cccc(C(=O)NC(C)c3ccc4c(c3)OCCO4)c2C1=O (stereo not drawn)	1.1	2.1

Next part; it opens with the 2 that closed the last part.
SMILES	CBX7 inh	CBX7 inh z-score
Cc1cc(N2CCN(C)CC2)nc2ccc(NC(=O)COc3ccc(Cl)cc3Cl)cc12	1.1	2.1
COCCN1Cc2cccc(C(=O)NC(C)c3ccc4c(c3)OCCO4)c2C1=O (stereo not drawn)	1.1	2.1
COc1cccc(NC(=O)CN(C)S(=O)(=O)c2cnc[nH]2)c1	0.95	-0.56
COc1ccccc1Nc1ncc(C(=O)NCc2ccc(F)cc2)c2ccccc12	1.2	1.6
Brc1ccc(Nc2nc(-c3ccccc3)cs2)cc1	1.3	1
O=C(CN1C(=O)COc2ccccc21)NCCCN1CCN(c2ccccc2F)CC1	0.97	-1.1
CC1(C)CC(=O)c2cnc(NC(=O)Cc3ccc(F)cc3)nc2C1	1	0.0019
CCn1c(SCC(=O)Nc2cc(OC)ccc2OC)nnc1-c1c[nH]c2ccccc12	1.1	0.37
CCOC(=O)c1c(NC(=O)C2CC2c2ccccc2)sc(C)c1C (stereo not drawn)	0.99	-0.15
CCOC(=O)N1CCc2c(sc(NCc3cccnc3)c2C(=O)Nc2ccc(OC)cc2OC)C1	0.9	-2.4
CCOC(=O)c1oc2ccccc2c1NC(=O)CC	1.1	2.1
COc1ccc(OCC(=O)Nc2cc(-c3nc4ncccc4o3)ccc2C)cc1	0.82	-1.2
Cc1cccc(NC(=O)c2cccc(S(=O)(=O)N3CCCCCC3)c2)c1	1	0.044
CCOc1ccc2nc(NC(=O)c3ccccc3NS(=O)(=O)c3ccc(C)cc3)sc2c1	0.83	-2.8
Cc1ccc2cc(CCNC(=O)c3c(F)cccc3Cl)c(=O)[nH]c2c1	1	1.5
Cc1cccc2c1-c1sc(C(=O)N3CC=C(c4ccccc4)CC3)cc1CO2	1.3	9.3
Cc1ccc(C(=O)CC2(O)C(=O)Nc3ccc(Cl)cc32)c(C)c1 (stereo not drawn)	0.97	-1.1
Cc1csc2ncc(C(=O)Nc3ccc(S(=O)(=O)Nc4nccs4)cc3)c(=O)n12	0.95	-1.3
Cc1ccccc1C(=O)Nc1ccccc1NC(=O)c1c(-c2ccccc2Cl)noc1C	1	-0.0027
COc1ccc(CCC(=O)Nc2ccc3nc4n(c(=O)c3c2)CCCCC4)cc1	1	0.36
COc1ccc(S(=O)(=O)Nc2c(C)nc3nc[nH]n3c2=O)cc1	1	0.96
O=C(Nc1ccc(OC(F)(F)F)cc1)c1cc(-c2ccc3c(c2)OCO3)on1	1	1.2
Cc1nc2ccccc2n1CCOc1ccc(Cl)cc1Cl	0.93	-0.88
Cc1nc2c(C#N)c[nH]n2c(=O)c1Cc1ccccc1	1.3	5.2
CCOC(=O)CNc1c(N2CCN(c3ccccn3)CC2)c(=O)c1=O	1	0.33
c1ccc(COc2ccccc2CNCc2cccnc2)cc1	0.77	-2.5
CC(=O)Nc1nc(C)c(-c2csc(Nc3ccccn3)n2)s1	1	0.027
Next records follow:
SMILES	CBX7 inh	CBX7 inh z-score
Cc1ccccc1-c1nc2cc(NC(=O)c3cccc(F)c3)ccc2o1	1	0.63
O=C(NC1CCCCC1)c1ccc2c(c1)N(Cc1c(F)cccc1Cl)C(=O)CS2	1.2	0.26
CC1CCCC(NS(=O)(=O)c2ccc3c(c2)NC(=O)CC(=O)N3)C1C (stereo not drawn)	1	1.7
CCOC(=O)c1cc(-c2nnc(-c3cccc(C)c3)o2)c(C)nc1C	1.1	1.3
Cc1ccc(-c2nnc(NC(=O)c3c(-c4ccccc4Cl)noc3C)s2)cc1	1.2	3.5
O=C(C1CCN(S(=O)(=O)c2cnc[nH]2)CC1)N1CCN(Cc2ccccc2)CC1	0.99	-0.15
CC1CCC(NC(=O)c2ccc3c(c2)N(Cc2ccc(Cl)cc2)CCS3)CC1 (stereo not drawn)	0.89	-1.7
CCc1nnc(NC(=O)Nc2ccc(OC)cc2)s1	1	0.51
O=c1[nH]c(CN2CCc3ccccc3C2)nc2ccccc12	0.96	-0.48
COCCCNc1ncnc2ccccc12	1	0.07
CN(C)CCCn1c(=N)n(CC(O)c2ccccc2)c2ccccc21 (stereo not drawn)	1.3	2.9
Cc1cccc(Nc2c(-c3ccc(O)cc3)nc3ncncn23)c1	0.87	-4.8
O=C(NCCCc1ccccc1)C1CCN(C(=O)c2cnn(-c3ccccc3)c2-n2cccc2)CC1	0.93	-0.16
COc1ccc2c(c1)-c1nc(NC(=O)c3ccccc3C)sc1CC2	0.94	-0.91
CCOc1ccc(NC(=O)C2CCCN(S(=O)(=O)c3ccc(Br)s3)C2)cc1 (stereo not drawn)	1	0.44
CCOc1ccc2cc(-c3nnc(Nc4ccccc4F)s3)c(=O)oc2c1	0.94	-1.2
CCOc1ccc(NC(=O)CSc2nccn2-c2cccc(Cl)c2)cc1	0.51	-1.7
CC1CN(CC(O)COc2ccc(C(C)C)cc2)CC(C)O1 (stereo not drawn)	0.95	-0.29
O=C(Cn1ncc2ccsc2c1=O)NCCc1ccc(Cl)cc1	0.99	-0.22
COc1ccc(-n2ncc3c(N4CC(C)CC(C)C4)ncnc32)cc1 (stereo not drawn)	0.98	-0.058
CCOc1ccc(Nc2nc3cc(C)ccc3cc2C)cc1	1.1	0.58
O=C(Nc1ccc(Cl)c(C(F)(F)F)c1)C1CCCN(S(=O)(=O)c2cccc3cccnc23)C1 (stereo not drawn)	0.96	-1.1
COc1ccc(NC(=O)C(CCS(C)(=O)=O)N2C(=O)c3ccccc3C2=O)cc1 (stereo not drawn)	0.98	-0.13
O=C(Cc1ccc(NC2=NC3CS(=O)(=O)CC3S2)cc1)NCc1cccnc1 (stereo not drawn)	0.8	-2.1
O=C(O)c1cc2sccc2n1Cc1ccc(Cl)cc1	1	0.79
The list continues.
SMILES	CBX7 inh	CBX7 inh z-score
CC1(C)NC(=O)N(CC(O)COc2ccc(F)cc2)C1=O (stereo not drawn)	1.1	2.1
c1ccc(CC2CCN(CCN3CCn4c3nc3ccccc34)CC2)cc1	1.6	6.6
CCCN(c1ccc(OCC)cc1)S(=O)(=O)c1ccc2c(c1)CCN2C(=O)CCC(=O)O	0.98	-0.25
CCOC(=O)c1oc2ccccc2c1NC(=O)C(C)(C)Oc1ccc(Cl)cc1	1.2	6.4
O=C(Nc1ccc(-c2csc(Nc3cccc(O)c3)n2)cc1)c1ccccc1	0.64	-0.62
COc1cccc(N2CCN(C(=O)c3ccc(CSc4nc5ccncc5[nH]4)cc3)CC2)c1	0.9	-4.2
COc1cccc(-n2c(SCC(=O)N3CCCC3)nnc2-c2c[nH]c3ccccc23)c1	0.98	-0.13
